# Screens (PubChem)
# MenB inh: Mtb MenB enzyme inhibition. inhibition, %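 (about 12 µg/mL by stock and volumes)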. P9WNP5. MenB enzyme assay, absorbance read-out; some hits fall short of the stated cut. hit rate 0.43% among 100,000;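 active = mean of two replicates above 30%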;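 note: 0% = no compound and 100% = wells with inactive enzyme; the first replicate is given; strong numbers were not always called active; inactives centre near -10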
# Target sequence (P9WNP5 whole entry, looked up): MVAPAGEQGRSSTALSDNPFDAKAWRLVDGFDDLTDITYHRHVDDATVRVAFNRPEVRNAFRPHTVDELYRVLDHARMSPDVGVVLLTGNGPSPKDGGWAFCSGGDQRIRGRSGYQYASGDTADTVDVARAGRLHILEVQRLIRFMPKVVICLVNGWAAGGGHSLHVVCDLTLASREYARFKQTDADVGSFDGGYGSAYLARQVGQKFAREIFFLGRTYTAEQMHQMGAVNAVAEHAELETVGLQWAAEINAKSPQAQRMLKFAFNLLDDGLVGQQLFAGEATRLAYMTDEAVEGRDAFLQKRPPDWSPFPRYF
# Polio RdRp inh: poliovirus RNA polymerase inhibition; AID 588519; % elongation, % (compound at 16.7 µg/mL); P03300; poliovirus polymerase elongation, fluorescence polarization; active compounds read low; hit rate 0.66% among 150,000; in the data active = % elongation below about 90%; note: some results filed as inactive read as strong as hits
# Target sequence (P03300 1749-2209 limits assumed): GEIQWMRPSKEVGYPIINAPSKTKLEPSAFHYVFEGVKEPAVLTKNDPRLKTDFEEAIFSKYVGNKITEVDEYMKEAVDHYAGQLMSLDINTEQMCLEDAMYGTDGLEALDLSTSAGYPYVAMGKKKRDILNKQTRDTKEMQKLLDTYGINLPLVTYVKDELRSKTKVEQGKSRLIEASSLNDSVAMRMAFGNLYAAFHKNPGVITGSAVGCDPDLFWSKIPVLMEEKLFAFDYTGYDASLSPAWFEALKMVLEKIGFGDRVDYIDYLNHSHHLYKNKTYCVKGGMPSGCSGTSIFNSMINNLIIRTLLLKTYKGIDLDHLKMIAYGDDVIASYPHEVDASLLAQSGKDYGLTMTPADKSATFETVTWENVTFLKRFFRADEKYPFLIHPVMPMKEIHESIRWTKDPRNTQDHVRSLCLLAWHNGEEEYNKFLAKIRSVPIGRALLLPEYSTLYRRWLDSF
# Mtb MbtI inh: MbtI salicylate synthase inhibition | purified MbtI enzyme, fluorescence intensity read-out | inhibition, %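 (about 17 µg/mL by stock and volumes)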 | hit rate 0.89% among 100,000 | AID 493033;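 active = above 50% in both replicates, above 80% if mildly self-fluorescent; inactive = the rest, strongly fluorescent compounds included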;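 note: 0% = mean of negative and 100% = mean of positive controls; one replicate is shown; some compounds called inactive have numbers as strong as hits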
# Polio RdRp inh intensity: second read-out of Polio RdRp inh, no call of its own (marks repeat the call); % elongation; measured here: total intensity read-out; formula for this scale not given here;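 total fluorescence in place of polarization; lower means less elongation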
# Numbers without * were called inactive; nt = not tested or not shown.
SMILES,MenB inh,Polio RdRp inh,Polio RdRp inh intensity,Mtb MbtI inh
N=c1n(CCO)c2ccccc2n1Cc1ccc(Cl)cc1,-19,103,95,0
O=C(Nc1nc(-c2ccccc2)cs1)C1CC1,nt,100,98,-6
CCOC(=O)c1cnc2ccc(C(=O)OC)cc2c1NCCCO,-3,103,103,-1
N#CC(C#N)=CNc1ccncc1,-34,nt,nt,21
CC(NC(=O)C12CC3CC(CC(C3)C1)C2)C(c1ccccc1)N1CCN(C)CC1 (stereo not drawn),5,103,100,-5
COc1cccc(/C=N/n2cnc3cc(C)c(C)cc32)c1OC,nt,101,100,8
CCSc1nc2ccccc2n1CCOc1ccccc1,-25,99,101,-1
Cn1nc(C(=O)N(Cc2ccco2)C2CCCCC2)c2c1-c1ccccc1SC2,-23,102,107,-14
CC12CN(C(=O)c3ccccc3)CC(C)(CN(C(=O)c3ccccc3)C1)C2=O,-22,110,108,nt
Cc1ccc(NC(=O)C2CC2C)c(Cl)c1 (stereo not drawn),-18,nt,nt,6
COc1cccc(NC(=O)c2cccc3c2SCCC3=O)c1,-1,101,102,-6
Cc1sc2ncn3c(=O)c4ccccc4nc3c2c1C,-1,97,100,0
O=C(c1cccc(S(=O)(=O)N2CCOCC2)c1)N1CCSC1=NCc1ccccc1,-3,92,97,4
CC(C)N1CCC(NS(=O)(=O)c2c(F)cc(F)cc2Br)CC1,-7,100,101,-8
O=C(Cn1nc(-c2ccccc2)ccc1=O)NCCCN1CCCC1,0,99,103,25
CN=C(NC#N)NCCSCC1N=CN=C1C (stereo not drawn),2,101,103,-8
O=S1(=O)CC2N=C(N/N=C/c3ccccc3)SC2C1 (stereo not drawn),3,101,95,21
c1ccc(C2CC3CCCCC3CO2)cc1 (stereo not drawn),13,101,104,5
CC(Oc1ccc(/C=c2/sc3nc4ccccc4n3c2=O)cc1)C(=O)O (stereo not drawn),-53,101,103,6
Cc1ccsc1C(=O)OCC(=O)c1ccccc1,nt,104,107,-4
N#Cc1c(Cl)cccc1I,-8,102,102,-6
COC(=O)c1sc(N)c(C(=O)OC)c1CSc1nc2sc3c(c2c(=O)n1C)CCC3,-9,101,109,3
CCCN1C(=O)c2ccc(C(=O)O)cc2C1=O,-14,101,102,1
CCCn1c(SCC(=O)NC(C)(C#N)C(C)C)n[nH]c1=O (stereo not drawn),-24,104,109,5
N#Cc1cccc(C(=O)OCC(=O)NC2CC2)c1,1,100,108,-4
O=C(O)c1cc2ccccc2c(=O)[nH]1,-25,95,91,89
Cc1cc(Cl)nc(SCC(=O)c2ccccc2)n1,-26,101,100,6
CSc1ncccc1C(=O)Nc1ccc2c(C)cc(=O)oc2c1,-36,105,114,11
OC(COCc1ccccc1)Cn1c2ccccc2c2ccccc21 (stereo not drawn),-26,109,111,-1
COc1cccc(COC(=O)c2nc3nc(C)cc(C)n3n2)c1,-19,108,114,-27
CC(Sc1n[nH]c(-c2cccs2)n1)C(=O)Nc1ccc(C(N)=O)cc1 (stereo not drawn),-3,98,105,2
CCCCn1c(N)c(C(=S)NC(=O)CC(C)C)c(=O)n(C)c1=O,-45,104,106,9
COP(=O)(OC)C(O)C(Cl)(Cl)Cl (stereo not drawn),-3,98,99,-3
CC(C)Oc1cccc(-c2nc(-c3ccccn3)no2)c1,-61,105,109,-8
O=S(=O)(N=Nc1c(O)n(CO)c2ccccc12)c1ccc(Br)cc1,5,100,96,5
CC(=O)NC1=NN(C(C)=O)C2(S1)C(=O)Nc1ccccc12 (stereo not drawn),33,100,103,8
CN(N)P(=S)(c1ccccc1)N(C)N,4,76*,69*,93*
O=C(CSc1n[nH]c(=O)n1Cc1ccccc1)NC(=O)Cc1ccccc1,2,106,107,-2
Nc1nc(COC(=O)c2cc(S(=O)(=O)NC3CC3)ccc2Br)nc(Nc2ccccc2)n1,-25,106,115,7
Cc1cc(C)cc(NC(=O)c2ocnc2C)c1,-26,100,101,20
COc1ccc(Oc2c(F)c(F)nc(F)c2Cl)cc1,-16,100,104,-9
c1ccc(NN=C2CCCCCCC2)cc1,-17,100,103,-20
C=CCC(CC=C)(C(N)=O)c1ccccc1,-14,98,100,6
COc1ccc2c(c1)nc(NCCCO)n2Cc1ccccc1,-32,105,106,7
CC(C)(C)C(=O)NC1CCNCC1,-63,104,100,-7
CCOC(=O)c1cc(-c2ccc(S(=O)(=O)NCC3CCCN3CC)s2)on1 (stereo not drawn),16,101,103,13
CCOc1ccc(NC23SCC(=O)C2CCc2ccccc23)cc1 (stereo not drawn),4,90,95,81
CCc1c(C)nn2cn[n+](Cc3ccccc3)c2c1[O-],-18,108,104,nt
CCOC(=O)C1=C(C(F)(F)F)OC(N)=C(C#N)C1c1ccc(-c2ccccc2)cc1 (stereo not drawn),0,95,100,nt
O=C1CC(N2CCN(S(=O)(=O)c3ccc4c(c3)OCCO4)CC2)C(=O)N1c1cccc(C(F)(F)F)c1 (stereo not drawn),6,107,112,1
# Next section
SMILES,MenB inh,Polio RdRp inh,Polio RdRp inh intensity,Mtb MbtI inh
CC1Cc2ccccc2N1C(=O)CSCC(=O)O (stereo not drawn),12,103,98,0
Cc1ccc(C(=O)Cc2ccccc2O)cc1,nt,102,101,60
Cc1ccccc1NC(=O)Cn1nc(C)c2ccccc2c1=O,-24,101,103,-1
CC(NC(=O)CCOc1ccccc1)c1ccc(-n2ccnc2)cc1 (stereo not drawn),-9,103,104,-10
COc1ccc(C2N=C(N3CCc4ccccc43)Nc3nc(C)cc(=O)n32)cc1 (stereo not drawn),-27,101,100,9
CCOC(=O)c1ccc(NC(=S)NCCCN2CCCC2=O)cc1,2,106,104,22
CC1Oc2ccccc2N(CC(=O)c2ccccc2)C1=O (stereo not drawn),15,101,102,-4
Cc1c(-c2nnc(Nc3ccccc3)s2)sc2nc3n(c(=O)c12)CCC3,-10,nt,nt,-11
Cn1c(CCC(=O)NCc2ccc(F)cc2)nc2cc(S(=O)(=O)N3CCCCC3)ccc21,-3,nt,nt,18
COc1ccc(N(C(=O)c2ccncc2)S(=O)(=O)c2ccc(OC)c(OC)c2)cc1,1,101,96,2
N#CCSc1nc2ccccc2c(=O)n1CCCn1c(SCC#N)nc2ccccc2c1=O,-17,99,103,1
CCc1cc(C(=O)Cc2nc3ccccc3s2)c(O)cc1O,-16,104,109,nt
CCc1ccc(NC(=O)N(C2CCCC2)C2CCN(C(C)=O)CC2)cc1,-31,100,103,-21
CCC(C)NC(=O)c1cnn2c(C(F)(F)F)cc(-c3ccccc3)nc12 (stereo not drawn),-30,102,105,-4
Cn1c(=O)cc(SCC(=O)NCC2CCCO2)c2ccccc21 (stereo not drawn),-19,103,102,-1
NCCCN1CCc2ccccc21,-38,101,103,45
CC/C(C)=N/NC(=O)c1ccc(CSc2nncn2C)cc1,-19,104,102,-19
COc1ccccc1N1CCN(C(=O)COc2c(C)cccc2C)CC1,-10,99,101,-12
Cc1nnc(SCC(=O)c2c(-c3ccccc3)n(C)c3ccccc23)n(N)c1=O,2,98,101,-6
CCCCC(c1nnnn1CCc1ccccc1)N1CCN(C2CCCC2)CC1 (stereo not drawn),-21,104,100,-12
COc1cc(OC)c(C(=O)NC2CC(C)(C)NC(C)(C)C2)cc1OC,4,101,101,32
Cc1nn(-c2ccccc2)nc1C(=O)c1c(C)[nH]n(-c2ccccc2)c1=O,15,102,104,8
COc1cc(/C=N/N=C/c2c[nH]c(=O)c(C#N)c2Nc2ccccc2)ccc1O,-6,101,104,-2
O=C(O)CSc1nnc2c3ccccc3n(Cc3ccccc3)c2n1,-7,103,100,3
Cc1noc(C)c1S(=O)(=O)N1CCCC1,-7,106,101,9
CCOC(=O)c1nc2sc3c(c2c(=O)[nH]1)CCC(C)C3 (stereo not drawn),-6,104,109,nt
Cc1cc(=O)oc2cc(OCC(=O)N(C)C)c(Cl)cc12,-11,101,102,42
O=C(CCN1C(=O)NC2(CCCC2)C1=O)N1CCC(c2nc3ccccc3s2)CC1,-21,105,110,-9
O=C(NCCCN1CCCC1)c1ccc2c(c1)N(Cc1ccccc1F)C(=O)c1ccccc1S2=O (stereo not drawn),-11,100,103,-1
O=C(c1ccccc1)C(CC(=O)N1CCOCC1)c1ccccc1 (stereo not drawn),-18,108,113,nt
Cc1ccc(C2CC(=O)N(C)c3c2c(C)nn3-c2nc3ccccc3s2)cc1 (stereo not drawn),15,100,103,10
CC(=O)Nc1ccccc1-c1nc2cc(C#N)c(C#N)cc2[nH]c1=O,-41,101,102,36
CC1=C(C#N)C(c2ccc3c(c2)OCO3)C2=C(CCCC2=O)N1 (stereo not drawn),-14,99,98,-33
CCn1c(=O)c(CCC(=O)NCc2ccc3c(c2)OCO3)c(C)c2c(C)nn(-c3cccc(C)c3)c21,4,99,104,6
Cc1cc(C)n(CCc2nc3c4ccccc4n(Cc4ccc(Cl)cc4)c(=O)n3n2)n1,-13,100,102,7
COc1cccc(CN2C(=O)NC3(CCSC3)C2=O)c1 (stereo not drawn),-6,105,111,2
O=C1CC(c2ccc(F)cc2)CC2=C1C(c1ccccc1)N=C(Nc1nc3ccccc3o1)N2 (stereo not drawn),-11,101,103,6
Cc1cc(OCC(O)CN(C(C)C)C(C)C)c(C(C)C)cc1Cl (stereo not drawn),-9,104,104,-30
COc1cccc(C2NC(=O)NC(C)=C2C(=O)Nc2ccccc2C)c1OC (stereo not drawn),-10,102,99,-28
ClCC1=Nc2cccc3cccc(c23)N1,nt,99,99,21
O=C(NCCN1CCCC1)c1ccco1,12,102,105,-3
C=CCc1c(C)[nH]c2c(Cl)cccc2c1=O,-36,107,109,nt
CN(C)S(=O)(=O)c1cccc(C(=O)OCC(=O)NC2CCCC2)c1,-27,104,108,-8
COc1cc(C)nc(Oc2ccc(OCCOc3ccccc3)nn2)n1,18,99,102,-2
CCc1cnc(NC(=O)CN2CC3CC(C2)c2cccc(=O)n2C3)s1 (stereo not drawn),-10,102,103,6
CC(=O)Nc1ccc(NC(=O)c2cc(=O)[nH]c3ccccc23)cc1,-35,103,102,15
N#CCSC1=Nc2ccccc2C2=NC(CCC(=O)NC3CCCCC3)C(=O)N12 (stereo not drawn),-18,101,107,29
CCOc1ccc(Cl)cc1N,-14,102,104,1
CCCn1c(=O)c2c(C(=O)OCC)cc(-c3ccccn3)nc2n(CCC)c1=O,-17,98,97,-4
COCC(C)N1C(=Nc2cccnc2)SCC1(O)c1cc2ccccc2o1 (stereo not drawn),-8,104,110,0
# Going on with the list.
SMILES,MenB inh,Polio RdRp inh,Polio RdRp inh intensity,Mtb MbtI inh
CCc1ccc(C(=S)N2CCOCC2)cc1,0,100,103,26
CC(C)c1ccc(/C=N/O)cc1,-9,103,102,-6
Cc1cccc2c(N=O)c(O)n(CCc3ccccc3)c12,2,102,109,3
COc1ccc(NC(=O)NC2CCCc3ccccc32)cc1OC (stereo not drawn),-16,99,105,3
Cn1c(=O)c(-c2noc(-c3ccc(Cl)cc3)n2)cn(-c2ccccc2)c1=O,-21,102,100,-13
O=C(OC1CSc2nc3ccccc3n2C1)c1ccco1 (stereo not drawn),-32,104,104,-15
Cc1nc(Cc2nnc(SCc3cc(=O)oc4cc5c(cc34)CCC5)o2)cs1,-8,98,101,15
O=C(N/N=C/c1ccc(-c2ccc(Cl)c(C(=O)O)c2)o1)c1ccncc1,-60,102,102,-28
O/N=C1/C(c2ccccc2)=Nc2ncnn2C1c1ccccc1 (stereo not drawn),1,104,105,1
Cc1cc(C)n2nc(SC(C)C(=O)NC3CCCCCCC3)nc2n1 (stereo not drawn),-9,103,105,10
COc1ccc(NC(=O)CCOc2ccccc2)cc1,-8,105,103,15
CCOCCCNC1CC(C)CC(C)(C)C1 (stereo not drawn),-14,101,94,-17
COc1cccc2cc(C(=O)N3CCN(c4cc(Cl)ccc4C)CC3)c(=O)oc12,-4,106,116,14
CCNCc1ccc(-c2cccc(Cl)c2)o1,19,100,100,28
NCCN1C(=O)S/C(=C/c2ccccc2)C1=O,nt,98,101,28
Oc1ccc(O)c([S+]2CCCCC2)c1,14,110,103,nt

# The order is random; about 1.8% have a hit in one of these screens.
